gsp agonist – gsp mutant agonism; gsp mutant cells, cAMP HTRF, 30 min; control for the full effect not named in the record; Potency, µM (top dose mostly 76.9 µM), without a hit: at the top dose activation (cAMP increase), usual class: activators; 0.13% of 340,000 active; AID 624287; active = well fitted activation curve with a large enough effect; inconclusive = small, poorly fitted or top-dose-only effect, or another doubt; inactive = no such curve, though single readings can be large or run the other way; cell line not stated here;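 note: phosphodiesterase inhibitor Ro 20-1724 added with compounds to block cAMP breakdown; potency is the fitted concentration of half-maximal effect; nearly all actives have a fitted effect of over 60% in size; about a fifth of the inactives were tested at one dose only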
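Cells in DMEM/10% FBS with G418 were pretreated with compounds in DMSO plus […] (300 uM stock) for 30 min at 37C. cAMP was measured by HTRF (cAMP-d2 plus anti-cAMP antibody-K) after 30 min at room temperature.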
TRPV1 PAM – enhances activation of the human vanilloid receptor TRPV1. Q8NER1. TRPV1-expressing cells, Fluo-8 calcium influx, capsaicin EC20 potentiation; host cell line not named in the record; control for the full effect not named in the record. potentiation, % at 8.33 µM. 0.02% of 320,000 active. AID 540277; active means potentiation above 80%; inconclusive means 30% to 80%; inactive means below 30%; note: 0% is about no effect
Target sequence (Q8NER1 whole entry, looked up): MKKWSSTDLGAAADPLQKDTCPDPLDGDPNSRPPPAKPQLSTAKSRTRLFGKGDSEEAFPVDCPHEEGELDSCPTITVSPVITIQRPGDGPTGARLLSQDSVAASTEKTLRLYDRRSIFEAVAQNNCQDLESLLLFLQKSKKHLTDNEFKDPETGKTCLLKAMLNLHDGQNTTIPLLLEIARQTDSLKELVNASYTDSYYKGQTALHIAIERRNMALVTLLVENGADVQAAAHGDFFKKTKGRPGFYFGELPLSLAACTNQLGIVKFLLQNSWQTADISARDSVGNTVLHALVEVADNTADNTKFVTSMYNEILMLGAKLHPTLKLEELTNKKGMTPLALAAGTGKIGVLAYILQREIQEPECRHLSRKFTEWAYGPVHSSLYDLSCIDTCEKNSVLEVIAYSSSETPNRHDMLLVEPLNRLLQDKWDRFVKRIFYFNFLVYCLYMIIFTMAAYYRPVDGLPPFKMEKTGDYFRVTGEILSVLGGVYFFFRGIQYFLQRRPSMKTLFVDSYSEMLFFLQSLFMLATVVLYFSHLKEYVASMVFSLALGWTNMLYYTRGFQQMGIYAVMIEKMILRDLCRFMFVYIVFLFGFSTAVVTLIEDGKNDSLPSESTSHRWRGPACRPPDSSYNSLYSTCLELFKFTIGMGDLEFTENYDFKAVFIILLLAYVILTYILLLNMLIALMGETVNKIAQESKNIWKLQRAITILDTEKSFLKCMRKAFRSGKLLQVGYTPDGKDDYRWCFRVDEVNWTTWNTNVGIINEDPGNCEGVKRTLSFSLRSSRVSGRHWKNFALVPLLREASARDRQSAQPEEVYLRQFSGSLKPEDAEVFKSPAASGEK
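Cells expressing TRPV1 were dye-loaded with Fluo-8 and read kinetically: 10 s baseline, 3 min after compound (agonist portion), then 2 min after EC20 capsaicin (allosteric enhancer portion). Calcium-bound dye fluorescence at 480/520 nm.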
CtBP-E1A blk – blocks the CtBP interaction with E1A; activity change, % (test concentration not listed); AlphaScreen GST-E1A/His-CtBP binding, 1536-well; active compounds read low; control for the full effect not named in the record; 0.49% of 340,000 active; in the data active means activity change below about -65%; inconclusive means about -30% to -65%; inactive means above about -30%; note: % is set by controls: 0 for no effect and ±100 for the full control effect
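Protein mix (5X: 125 nM each GST-E1A, His-CtBP) was incubated with pinned compound 2 h at 37 deg C in dark, in 50 mM Tris pH 8.0 buffer with 300 mM NaCl. Glutathione donor and nickel acceptor beads followed; AlphaScreen signal read after 1 h.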
Menin MLL FP FL – menin-MLL binding inhibition, fluorescein peptide | Fluorescence polarization, fluorescein-MLL peptide displacement from menin | FP activity change, % at 61.4 µM | 290,000 tested, under 10 active | AID 1766; inconclusive = falling polarisation curve, or a change in total fluorescence; inactive = total fluorescence flat and polarisation flat or rising; no compound was filed as active; the % refers to the polarisation; negative = inhibition;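 note: % of control where 0% means no effect; inhibitors lower the polarisation; unlabelled MLL peptide was the positive control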
gsp antag – gsp mutant antagonism; 0.4% of 340,000 active; AID 624288; gsp-mutant cells, cAMP HTRF, 30 min; control for the full effect not named in the record; Potency, µM (series often up to 76.9 µM), inactives show at the top dose activity change, negative = inhibition, actives largely listed as inhibitors; active = falling curve of any shape with a large fitted effect; inconclusive = falling curve, mostly with a smaller effect; inactive = flat or rising curve; cell line not stated here;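 note: intracellular cAMP measured with PDE inhibitor Ro 20-1724 present during compound exposure; potency is the fitted concentration of half-maximal effect; % is set by controls: 0 for no effect and ±100 for the full control effect; nearly all actives have a fitted effect of over 65% in size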
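Cells in G418 medium, seeded 16-24 h, 37C; buffer exchange to DPBS + 1 mM CaCl2, 0.5 mM MgCl2, 0.05% BSA; cpds in DMSO + […] (300 uM stock), 30 min 37C; HTRF cAMP detection.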
Sfp PPTase inh – Sfp phosphopantetheinyl transferase inhibition; Biochemical Sfp PPTase activity, qHTS; Potency, µM, for the others: max response, negative = inhibition, most hits filed as inhibitors; 3.5% of 310,000 active; active = well fitted inhibition curve with a large enough effect; inconclusive = small, poorly fitted or top-dose-only effect, or another doubt; inactive = no such curve, though single readings can be large or run the other way;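 note: the enzyme is Sfp with the accession as filed and its product quenches rhodamine fluorescence; potency is the fitted concentration of half-maximal effect; 0% = enzyme reaction without inhibitor and -100% = no enzyme wells; top concentration of the series not given in the record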
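Step 1, compound plus 15 nM Sfp-PPTase, 15 min, room temperature. Step 2, add rhodamine-CoA (5 uM) and BHQ-2-YbbR (12.5 uM). Step 3, read 525/598 nm fluorescence at 0 and 30 min.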
ClpP mod – qHTS Assay for Activators of ClpP; ATP-dependent Clp protease proteolytic subunit (Bacillus subtilis (strain 168)), P80244; purified B. subtilis ClpP, FRET peptide cleavage, 20 min; Potency, µM (doses to about 57.5 µM), for inactives: top-dose activity change, negative = active; 1.9% of 340,000 active; active = well fitted falling curve with a large enough effect; inconclusive = small, poorly fitted or top-dose-only effect; inactive = no such curve, though single readings can be large or run the other way; note: potency is the fitted concentration of half-maximal effect; the source files actives as falling curves though it sought activators and does not explain the sign; nearly all actives have a fitted effect of over 65% in size; many hits overshoot -100%
Target sequence (P80244 whole entry, looked up): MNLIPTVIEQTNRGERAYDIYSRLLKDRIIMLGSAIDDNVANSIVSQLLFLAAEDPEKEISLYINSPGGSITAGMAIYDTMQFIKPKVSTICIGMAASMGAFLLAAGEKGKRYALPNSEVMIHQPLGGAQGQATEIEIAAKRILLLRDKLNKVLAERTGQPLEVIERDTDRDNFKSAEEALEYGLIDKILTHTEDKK
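FRET quenching reversal measured ClpP activation: 10 microg/mL B. subtilis ClpP at pH 8 with the FRET-FV decapeptide, read at 430 nm after 320 nm excitation. The 20-min minus 0-min signal was scaled between DMSO/no-enzyme wells and ADEP (5.8 microM final).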
* marks the source's active call; other numbers are inactive results; ? = inconclusive; nt = not tested or not shown; & = joins results of further samples; [ ] = dose if it differs, or a comment.

SMILES	gsp agonist	TRPV1 PAM	CtBP-E1A blk	Menin MLL FP FL	gsp antag	Sfp PPTase inh	ClpP mod
CC(=O)NNC1=Nc2ccccc2N(C)C(C)C1 (stereo not given)	-4%	-2	-12	-0.9	6%	5%	-1.7%
CCOC(=O)C1CCN(S(=O)(=O)c2ccc(Cl)s2)CC1	4%	3	5	3.5	-1%	24%	nt
Cc1cc2occ(CC(=O)Nc3nnc(C4CC4)s3)c2cc1C	2%	0	4	0.1	9%	8%	-0.3%
Cc1csc(=O)n1CCC(=O)OCc1nnc(-c2ccc(Cl)cc2)o1	-11%[15.4 µM]	-11	-15	nt	-1%	nt	nt
CCN(CC(=O)NCc1cccs1)C(=O)c1ccc(S(=O)(=O)Nc2ccccc2)cc1	-3%[15.4 µM]	17	-1	nt	5%	nt	-1.2%
COc1ccc(/C=N/NC(=O)c2c(C)nc3ccc(Cl)cn23)cc1OC	5%	1	nt	-1.6	10%	13%	?
O=C(CN1C2CCCC1CC(NC(=O)c1ccccc1)C2)Nc1nccs1 (stereo not given)	-32%[inhibitor]	-6	0	-0.9	-1%	26%	-1.7%
CCCCOc1ccc(CNC(=O)NS(=O)(=O)c2ccc(OCC(C)C)cc2)cc1	-55%[inhibitor]	13	5	-0.3	-12%	12%	0.9%
CCN1CCC(=NNC(=O)CC23CC4CC(CC(C4)C2)C3)CC1	-41%[inhibitor]	3	-2	-29	8%	-14%	-2.4%
O=C(CSc1nc(O)c(Cc2ccccc2)c(=O)[nH]1)Nc1nc2c(s1)CCCC2	3%	4	nt	0.5	3%	16%	-1.8%
C[C@H](NC(=O)c1ccccc1)C(=O)OCC(=O)Nc1ccc2c(c1)OCO2	-21%	-1	nt	nt	-16%	nt	-0.1%
COc1cc(SC)ccc1C(=O)OCC(=O)NC1CCCCC1	20%	?	-1	1.0	-1%	12%	nt
CC(CCc1ccccc1)NS(=O)(=O)c1ccc(Cl)c(C(=O)O)c1 (stereo not given)	-3%[15.4 µM]	5	4	0.9	16%	7%	-0.2%
Oc1ccc(/C(Cc2ccc3ccccc3n2)=N\Nc2ccccc2)c(O)c1	4%[15.4 µM]	-9	-13	3.1	-6%	-30%	-2.0%
COc1ccc(N(C(C)C(=O)N/N=C/c2cccnc2)S(C)(=O)=O)cc1 (stereo not given)	-34%[inhibitor]	1	1	5.7	3%	10%	1.1%
CC(CCN1CCN(c2ccccn2)CC1)c1ccccc1 (stereo not given)	-35%[inhibitor]	-11	-10	8.0	6%	-12%	nt
CSc1cccc(N2CC(C(=O)NCCN3C(=O)S/C(=C\c4cccnc4)C3=O)CC2=O)c1 (stereo not given)	9%	0	-4	nt	-4%	nt	-0.4%
COc1cc(C(CC(=O)Nc2cccc(C)n2)N2Cc3ccccc3C2=O)cc(OC)c1OC (stereo not given)	1%	3	2	-17	-6%	5%	nt
Cn1c(=O)[nH]c(=O)c2c1nc1n2CCS1	31%[15.4 µM]	-1	24	1.5	3%	17%	nt
Cc1nnc(SCC(=O)Nc2ccc(N3CCN(S(C)(=O)=O)CC3)cc2)o1	3%	1	-4	nt	-7%	-10%	nt
COc1cc(CN2CCC(C(N)=O)CC2)ccc1OCc1ccccc1	4%[15.4 µM]	5	-1	-0.1	12%	-21%	-2.5%
Cc1cc(C)c(Nc2ncccc2C(=O)O)c(C)c1	-7%[15.4 µM]	-3	-14	4.0	nt	10%	nt
CCC(C)NC(=O)c1ccc(CNS(=O)(=O)c2ccc3c(c2)C(C)(C)C(=O)N3C)cc1 (stereo not given)	?	12	7	1.3	2%	25%	2.9%&-1.4%
CCOc1ccc(N2C(=O)C3CC(C)=C(C)CC3C2=O)c([N+](=O)[O-])c1 (stereo not given)	-1%	-15	4	-0.2	3%	-20%	-0.1%
CCCCCC(=O)Nc1ccc(N2CCN(S(C)(=O)=O)CC2)cc1	-23%	-5	-3	3.6	7%	14%	-1.4%

Some values from the results shown.
For TRPV1 PAM, Cc1csc(=O)n1CCC(=O)OCc1nnc(-c2ccc(Cl)cc2)o1 is entered as -11
For gsp agonist, COc1cc(C(CC(=O)Nc2cccc(C)n2)N2Cc3ccccc3C2=O)cc(OC)c1OC (stereo not given) is entered as 1%

Compound profiles, as listed above. Values in the order: gsp agonist, TRPV1 PAM, CtBP-E1A blk, Menin MLL FP FL, gsp antag, Sfp PPTase inh, ClpP mod
Cn1c(=O)[nH]c(=O)c2c1nc1n2CCS1 in the list: 31%[15.4 µM], -1, 24, 1.5, 3%, 17%, nt
CSc1cccc(N2CC(C(=O)NCCN3C(=O)S/C(=C\c4cccnc4)C3=O)CC2=O)c1 (stereo not given) in the list: 9%, 0, -4, nt, -4%, nt, -0.4%
C[C@H](NC(=O)c1ccccc1)C(=O)OCC(=O)Nc1ccc2c(c1)OCO2 in the list: -21%, -1, nt, nt, -16%, nt, -0.1%

Following part:
SMILES	gsp agonist	TRPV1 PAM	CtBP-E1A blk	Menin MLL FP FL	gsp antag	Sfp PPTase inh	ClpP mod
COc1cc(/C=C/C(=O)c2ccc(C)c([N+](=O)[O-])c2)cc(OC)c1O	-25%	10	9	3.1	4%	-1%	-1.5%
CCOc1ccc(CC2NCCc3cc(OCC)c(OCC)cc32)cc1OCC (stereo not given)	27%	-1	nt	5.4	10%	?	2.3%
Cc1cc(C)c(OCC(=O)NCC2COc3ccccc3O2)c(C)c1 (stereo not given)	7%[15.4 µM]	-15	-1	nt	-4%	nt	-4.0%
Cc1ccsc1CN(C)C(=O)CN1C(=O)NC2(CCCCC2C)C1=O (stereo not given)	-41%[inhibitor]	5	6	nt	17%	nt	1.6%
CN(C)c1cc[n+](CC(=O)Nc2cc(C(F)(F)F)ccc2Cl)cc1	0%	13	0	0.6	5%	13%	-3.4%
O=C(Nc1ccccc1)N1CCCC(CNS(=O)(=O)Cc2ccccc2)C1 (stereo not given)	21%[15.4 µM]	-2	14	-4.9	-12%	5%	nt
CCOC(=O)CC(NCc1ccc(OC)c(OCC)c1)c1ccc(C)cc1 (stereo not given)	1%[15.4 µM]	-15	3	0.3	-1%	1%	nt
COc1ccc(NC(=O)Nc2nnc(Cc3ccc(F)cc3)s2)cc1	-11%	?	-13	?	2%	4%	nt
CCc1nnc(NC(=O)CCC(=O)NC2CCCCC2)s1	?	20	0	4.2	11%	12%	0.5%
CCN(CC)C(=O)CC(c1ccc2c(c1)OCO2)c1c(OC)cc(OC)c2ccc(=O)oc12 (stereo not given)	nt	12	1	?	-8%	-3%&10%	-8.2%
CC(C)CN(C(=O)c1cc2ccccc2o1)c1c(N)n(CC(C)C)c(=O)[nH]c1=O	-7%	6	8	1.9	-2%	11%	1.4%
COc1ccc(S(=O)(=O)NNC(=O)Nc2ccc(C)cc2)c(OC)c1	10%[15.4 µM]	-4	-6	nt	8%	0%	-1.0%
Cc1cc2oc(=O)cc(COC(=O)c3n[nH]c4ccccc34)c2cc1C	17%	-1	-8	4.9	-6%	9%	-7.7%
CCOC(=O)C1=C(COC(=O)CCOc2ccc(C)cc2)NC(=O)NC1C (stereo not given)	?	2	0	nt	4%	nt	1.8%
CC(C)Nc1nnc(SCc2cc(=O)n3ccsc3n2)s1	?	-2	-4	-2.1	9%	56µM*	nt
Cc1ccc(NC(=O)[C@H](Cc2ccccc2)NC(=O)[C@@H]2Cc3ccccc3CN2)c(C)c1	10%	7	-5	4.2	4%	17%	-2.5%
COc1cc(/C=C/C(=O)Nc2cc(C(F)(F)F)ccc2Cl)cc(OC)c1OC	0%	9	7	-0.7	2%	11%	?
O=C(CCc1c[nH]c2ccccc12)OCC(=O)N1CCN(S(=O)(=O)c2ccccc2)CC1	1%	?	0	nt	-5%	nt	0.3%
CC1CN(Cc2nc3ccccc3c(=O)[nH]2)CC(C)O1 (stereo not given)	-4%[15.4 µM]	-22	0	-1.0	6%	4%	nt
CC(C)c1ccc(CN(C(=O)c2cc3ccccc3oc2=O)C2CCS(=O)(=O)C2)cc1 (stereo not given)	-21%	3	3	-0.6	-6%	2%	-15%&-9.6%
CCC(C(=O)N1CCN(S(C)(=O)=O)CC1)c1ccccc1 (stereo not given)	-26%	-12	11	0.2	7%	20%	-2.7%
O=C(Nc1ccc(C(F)(F)F)cc1)c1ccc(NC(=O)C2CCCO2)cc1 (stereo not given)	3%	-7	5	1.4	7%	-4%	nt
NS(=O)(=O)c1ccc(CNC(=O)c2cccnc2Cl)cc1	3%	-15	-1	nt	10%	15%	nt
Cc1ccc(C(=O)NN2C(=O)C3C4C=CC(C5CC45)C3C2=O)cc1 (stereo not given)	14%[15.4 µM]	-7	7	-0.2	-4%	4%	nt
CCCOC(=O)NC1C(NC(=O)OCCC)N(C)C(=O)N1C (stereo not given)	-2%	4	8	1.5	19%	-10%	-0.6%
O=C(NCCNc1ccccc1[N+](=O)[O-])c1cc(F)c(F)cc1Cl	-2%[15.4 µM]	-24	-9	-2.6	-10%	9%	-0.9%
COc1ccc(-n2cnnc2SCC(=O)N2CCN(c3ccccc3)CC2)cc1	22%	12	-2	-1.5	-3%	0%	?
CCOc1ccccc1NC(=O)c1cc(C(=O)c2cc(OC)ccc2O)coc1=N	7%	-8	-8	?	-16%	-3%	30%
COc1ccc2c(c1)c(C(=O)CNc1nc(C)cs1)c(C)n2C	7%	-4	?	2.7	-8%	-7%	?
Cc1cc(C(=O)NP(=O)(N2CC(C)OC(C)C2)N2CC(C)OC(C)C2)c(C)n1C1CC1 (stereo not given)	-15%	3	-5	0.7	6%	24%	nt

Part of the list above, limited to Menin MLL FP FL, TRPV1 PAM and gsp antag.
structure | Menin MLL FP FL | TRPV1 PAM | gsp antag
O=C(CSc1nc(O)c(Cc2ccccc2)c(=O)[nH]1)Nc1nc2c(s1)CCCC2 | 0.5 | 4 | 3%
C[C@H](NC(=O)c1ccccc1)C(=O)OCC(=O)Nc1ccc2c(c1)OCO2 | nt | -1 | -16%
